ALR inh – inhibitors of human ALR sulfhydryl oxidase, primary screen, biochemical, H2O2 detection, HRP-luminol luminescence, single point; FAD-linked sulfhydryl oxidase ALR (Homo sapiens), P55789; purified ALR, DTT oxidation; inhibition, % (test concentration not listed); actives 3.8% (n = 290,000); AID 485317, 2010;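 active means mean and each replicate at 75% or more; inconclusive means only one of the two met; inactive means neither met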;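 further: stock transfer was 7.5 nL into about 7.5 µL; 0% = neutral wells and 100% = wells with inactivated enzyme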
Target sequence (P55789 whole entry, looked up): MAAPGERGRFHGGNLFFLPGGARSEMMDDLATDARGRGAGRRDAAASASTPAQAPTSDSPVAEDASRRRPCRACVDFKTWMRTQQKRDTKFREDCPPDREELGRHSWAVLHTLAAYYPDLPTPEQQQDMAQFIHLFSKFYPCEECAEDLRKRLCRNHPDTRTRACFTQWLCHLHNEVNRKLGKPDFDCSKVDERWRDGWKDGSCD
FGF22 binding – binders of human FGF22 protein, primary screen, FGF22 synaptogenesis inhibitor project, biophysical, thermal shift, single point; AID 651658, 2012; recombinant FGF22 thermal shift, SYPRO orange fluorescence; percent of sucrose octasulfate shift, DMSO zero; actives 1.5% (n = 340,000); calls only at 9.99 µM;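 active means melting point raised past a set limit in the mean and every replicate; inconclusive means no clear call; three in four hits are not shown here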
Target sequence (Q9HCT0 whole entry, looked up): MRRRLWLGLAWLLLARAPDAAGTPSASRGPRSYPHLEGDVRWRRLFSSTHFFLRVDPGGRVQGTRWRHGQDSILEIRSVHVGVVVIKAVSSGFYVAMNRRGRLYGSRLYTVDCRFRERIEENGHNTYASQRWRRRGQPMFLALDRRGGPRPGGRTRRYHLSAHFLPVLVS
Beta apoptosis – inhibitors of cytokine-induced beta cell apoptosis, primary screen, luminescence | INS-1E cytokine-induced death, ATP luminescence, 48 h; percent of positive-control rescue, neutral wells zero | protection from apoptosis, % (test concentration not listed) | actives 0.8% (n = 300,000);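 active means all replicates at 75% or more, or half of them and the mean; inconclusive means half reach 75% but not the mean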;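 further: 0% = cytokine-treated negative control wells and 100% = positive control rescue; higher means more ATP so stronger rescue from cytokine killing; wells of about 40 µL received 100 nL stock; the first replicate is given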
AF4-AF9 inh – inhibitors of AF4 peptide binding to AF9, primary screen, biochemical, AlphaScreen, biotin-AF4 peptide, FLAG-AF9, single point; inhibition, % at 10 µM; actives 0.47% (n = 350,000); AID 651704, 2012;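 active means every replicate reaching a set inhibition limit, whatever the replicate mean, cut at about 25% in these data; inconclusive means mean inhibition reaches that limit but some replicates miss it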;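 further: 0% = plate neutral control median and 100% = total signal loss; the record names both 10 and 1 µM as test concentration; the first replicate is given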
Target sequence (P42568 whole entry, looked up): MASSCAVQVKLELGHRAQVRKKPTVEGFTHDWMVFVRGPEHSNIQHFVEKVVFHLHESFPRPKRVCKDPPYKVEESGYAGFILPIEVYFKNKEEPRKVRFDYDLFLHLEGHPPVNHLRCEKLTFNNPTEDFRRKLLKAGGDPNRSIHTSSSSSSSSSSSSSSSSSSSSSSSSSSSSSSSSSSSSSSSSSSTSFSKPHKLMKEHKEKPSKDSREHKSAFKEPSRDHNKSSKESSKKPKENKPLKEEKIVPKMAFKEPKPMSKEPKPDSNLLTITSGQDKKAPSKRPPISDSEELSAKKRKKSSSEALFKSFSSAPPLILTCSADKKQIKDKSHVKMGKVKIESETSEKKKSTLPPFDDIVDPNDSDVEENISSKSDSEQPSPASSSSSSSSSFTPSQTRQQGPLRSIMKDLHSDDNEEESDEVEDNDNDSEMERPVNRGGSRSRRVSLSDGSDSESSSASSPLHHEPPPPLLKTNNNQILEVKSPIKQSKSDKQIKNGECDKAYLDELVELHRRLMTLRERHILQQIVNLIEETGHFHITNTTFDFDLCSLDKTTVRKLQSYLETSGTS
T cruzi repl – inhibitors of intracellular T. cruzi growth, primary screen, luminescence, NIH3T3 host cells; T. cruzi beta-gal in NIH3T3, 90 h; inhibition, % (concentration not given with the values); actives 1.4% (n = 300,000);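 active means mean inhibition across valid replicates above about 55%, limit read from the data; inconclusive means mean below that limit but half or more replicates reach it; inactive means mean below it, under half of replicates reach it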;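 further: signal also drops with host cell toxicity which is not excluded here; 0% = plate median of DMSO wells and 100% = zero luminescence signal; higher percent means less beta-gal luminescence so fewer parasites; stock transfer was 50 nL into about 50 µL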
rRNA inh HTS – reduced GFP signal of wild-type E. coli, primary screen, bacterial rRNA inhibitor project, GFP/RFP fluorescence, OD600, single point; E. coli WT GFP vs humanized-ribosome RFP mutants, 24 h; hits give low values; DMSO median 0, no signal -100; actives 1.6% (n = 350,000); GFP signal change (wild-type ribosome), % (test concentration not listed); AID 720706, 2013;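 active means significant combined selectivity score with lowered wild-type GFP, culture density cut under 30%, mutant RFP and density less affected; inactive means any of these conditions unmet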; further: one replicate is shown; some compounds called inactive have numbers as strong as hits
RanGTP-Imp inh – inhibitors of RanGTP-importin-beta interaction, primary screen, biochemical, FRET, CFP-Ran, YFP-importin-beta, homogeneous; inhibition, % (test concentration not listed); cell-free CFP-Ran/YFP-importin-beta FRET ratio; actives 1.1% (n = 300,000); Ran GTPase (GTP-bound) - importin-beta complex;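 active means most replicates above 15%; inconclusive means exactly half above 15%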;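 further: 0% = DMSO wells and 100% = Ran loaded with GDP instead of GTP; wells of about 40 µL received 100 nL stock; the first replicate is given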
Calb FLC – C. albicans growth inhibition with fluconazole, primary screen, CaCi-2 strain, Alamar Blue fluorescence; C. albicans CaCi-2 (fluconazole-resistant clinical isolate) + fluconazole, 48 h; growth inhibition, % (test concentration not listed); actives 0.57% (n = 300,000);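 active means most replicates above 75%; inconclusive means exactly half above 75%; inactive means most below 75%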;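 further: all wells also contain fluconazole at 8 µg/ml as a sub-toxic cotreatment; 0% = median of DMSO wells and 100% = median of geldanamycin control wells; wells of about 8 µL received 7.5 nL stock; the first replicate is given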
rRNA inh HTS OD600 – also measured in rRNA inh HTS; calls as there; OD600 change, %; measured here: OD600 growth;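 optical density of the mix in the first replicate; 0 = DMSO median and -100 = no signal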
rRNA inh HTS RFP – also measured in rRNA inh HTS; calls as there; RFP signal change, %; measured here: RFP humanized mutant strains;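 first replicate; 0 = DMSO median and -100 = no signal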
* marks the source's active call; other numbers are inactive results; i = inactive; ? = inconclusive; / = no result given. This is a subset, so the mix of outcomes need not match the whole.

SMILES | ALR inh | FGF22 binding | Beta apoptosis | AF4-AF9 inh | T cruzi repl | rRNA inh HTS | rRNA inh HTS OD600 | rRNA inh HTS RFP | RanGTP-Imp inh | Calb FLC
Cn1cccc1C(=O)OCC(=O)Nc1ccc2[nH]c(=O)[nH]c2c1 | -7 | i | 5 | 0.5 | / | 10 | 13 | 0.4 | / | /
Cc1ccc(CSc2sc(C(=O)c3ccccc3)c(N)c2C#N)cc1 | / | / | -5 | / | 17 | / | / | / | -3.4 | -14
CCOC(=O)c1[nH]c(=O)[nH]c1CSc1ccccn1 | 50 | / | -7 | / | 1 | 1 | 5 | -3.2 | / | -1
O=S(=O)(Nc1cccnc1)c1ccc2c(c1)OCCO2 | 3 | / | -2 | / | -5 | / | / | / | -4.1 | -11
COc1ccc(OCC(O)CNC(=O)Nc2cc(C)cc(C)c2)cc1 (stereo not given) | -3 | i | -9 | -2.9 | 8 | -7 | -4 | 4.3 | 0.3 | 6
Cn1nnnc1SCCNC/C=C/c1ccccc1 | -1 | / | 1 | / | -4 | / | / | / | 6.1 | 23
CCc1cccc(NC(=O)Cn2ncn3c(cc4ccccc43)c2=O)c1 | -4 | / | 0 | -29 | 23 | 4 | 2 | -1.7 | 2.9 | -4
COc1ccc(CC(=O)Nc2cccc(Cl)c2C)cc1S(=O)(=O)N1CCOCC1 | -5 | i | 1 | -0.8 | / | 2 | 2 | -2.1 | / | /
O=C(O)c1ccccc1-c1nc2ccccc2c(=O)[nH]1 | -2 | / | -2 | / | -6 | / | / | / | 25* | 1
CCCCCCCCC(=O)NNC(=O)c1c(O)c2ccccc2n(CC)c1=O | / | / | -2 | -1.1 | -17 | / | / | / | 0.6 | 94*
COc1ccc(OC)c(Nc2ncnc3ccccc23)c1 | -19 | / | -13 | / | 3 | / | / | / | 3.7 | 2
CCOC(=O)C1C(=O)OC(C)(C)C1C(C)C(=O)c1ccccc1 (stereo not given) | -5 | / | -8 | / | 13 | / | / | / | -3.6 | -11
Cc1cc(Cl)c(S(=O)(=O)N2CCN(c3ccccn3)CC2)cc1OCC(=O)NC1CCCCC1 | -5 | / | 1 | -1.6 | 26 | -11 | -14 | 12 | 2.6 | -1
OCCN1CCN(c2cc(-c3ccccc3)c3ccccc3n2)CC1 | -2 | i | 1 | 3.7 | 35 | / | / | / | -17 | -1
CC(C)(C)NC(=O)Cn1c(SCC(N)=O)nc2ccccc21 | -2 | / | 1 | / | -6 | / | / | / | -0.3 | 4
Cc1cccc(N(CC(=O)NCCc2ccccc2)C(=O)c2csnn2)c1 | 1 | i | -3 | -2.8 | 9 | 1 | 9 | -2.3 | 4.8 | 2
O=C(CCCCO)c1ccc(O)c(Cl)c1 | 8 | i | -1 | ? | -12 | 18 | 24 | 2.0 | -9.9 | 0
CS(=O)(=O)N1CCN(C(=S)NCc2ccc(F)cc2)CC1 | -8 | / | -4 | / | -15 | / | / | / | -1.5 | 3
Cc1cc(Cl)c2ccc(Cl)cc2n1 | 1 | i | -4 | / | 2 | 13 | 8 | 2.4 | 0.1 | 5
CN(CC(=O)Nc1ccccc1Br)C(=O)Cn1[nH]c(=O)c2ccccc2c1=O | / | i | -6 | 0.0 | / | 10 | 14 | 1.4 | / | /
NC(=O)c1c(NC(=O)C(=O)N2CCOCC2)sc2c1CCC2 | 19 | i | 0 | -0.4 | 6 | -1 | 10 | 1.0 | -0.8 | -4
Oc1cc(-c2cccnc2)cc2cccnc12 | 7 | i | 11 | 26* | / | -18 | -30 | -30 | / | /
O=C(c1ccc(COc2ccc(Cl)cc2)o1)N1CCN(Cc2ccc3c(c2)OCO3)CC1 | -3 | / | 3 | / | ? | / | / | / | 2.3 | -12
O=C(NC1=NCCS1)c1ccccc1Cl | / | i | -2 | 3.2 | -13 | -1 | -3 | -4.4 | -4.3 | 5
COc1ccccc1CNS(=O)(=O)c1ccc(S(=O)(=O)NC2CC2)cc1 | / | i | -3 | -1.0 | 16 | 4 | 6 | 0.9 | -0.3 | 3
Cn1nc(C(C)(C)C)c([N+](=O)[O-])c1C(=O)Nc1cccc2ccccc12 | 0 | i | 6 | 1.9 | -2 | -23 | -9 | 8.4 | 1.2 | -32
O=C(Nc1ccc(Cl)cc1)c1ccc2ncsc2c1 | / | i | / | -3.2 | 1 | 2 | 9 | -0.3 | -4.1 | -4
CC(OC(=O)C1CCN(c2ccc(C(F)(F)F)cn2)CC1)C(=O)Nc1cccc([N+](=O)[O-])c1 (stereo not given) | / | i | 1 | 3.3 | / | -11 | -20 | -1.8 | / | /
Cc1cc(C)n(-c2cccc3cccnc23)n1 | -1 | / | -3 | / | -13 | / | / | / | ? | -1
O=C(NCC(c1ccco1)N1CCCCC1)c1cnc(Cl)c(Cl)c1 (stereo not given) | -4 | i | -8 | 0.6 | / | 7 | 5 | 0.3 | / | /
CC(=O)c1c(C)nc(-c2ccc(Cl)cc2)nc1N=CN(C)C | / | / | -1 | / | -2 | / | / | / | -14 | -4
Cc1ccc(OCCOCCn2cnc3ccccc3c2=O)c([N+](=O)[O-])c1 | -4 | i | 2 | 5.0 | 12 | -7 | -7 | -1.0 | 1.3 | -10
CC1(C)CC2(CCCN3C(=O)CSC32)CCS1 (stereo not given) | -5 | / | -4 | / | -5 | / | / | / | -0.8 | -19
COc1ccc(S(=O)(=O)N2CCC(C(=O)NCc3cccnc3)CC2)cc1Cl | -3 | i | -5 | -2.6 | -2 | 1 | -2 | 0.9 | -0.1 | -7
Cc1cccc(N2C(=O)N(c3ccccc3C)C3CS(=O)(=O)CC32)c1 (stereo not given) | -5 | / | -2 | / | -18 | / | / | / | 0.2 | 10
Cc1ccccc1NC(=O)CC1SC(=O)N(c2ccccc2)C1=O (stereo not given) | 97* | / | -3 | / | 6 | / | / | / | -1.2 | -2
Cc1nn(Cc2c(F)c(F)c(F)c(F)c2F)c(C)c1NC(=O)c1c([N+](=O)[O-])cnn1C | -20 | / | 0 | / | -2 | / | / | / | -2.9 | ?
Cc1cc(=O)n(-c2ccc(Cl)cc2)c(=O)[nH]1 | / | i | -4 | -0.2 | -4 | -29 | -30 | -0.4 | -1.7 | 40
O=C(CN1C(=O)/C(=C/c2ccc(Cl)cc2)SC1=S)NC1C=CS(=O)(=O)C1 (stereo not given) | -133 | i | 3 | -1.7 | -7 | -1 | 1 | 3.6 | -6.4 | 3
OC(CN1CCCC1)Cn1ccc2ccccc21 (stereo not given) | -8 | i | -11 | 22 | -14 | 5 | 20 | 1.5 | -0.7 | 31

In a second layout: results already given.
Second line of a record – ALR inh, FGF22 binding, Beta apoptosis, AF4-AF9 inh, T cruzi repl, rRNA inh HTS, rRNA inh HTS OD600, rRNA inh HTS RFP, RanGTP-Imp inh, Calb FLC
COc1ccc(OC)c(Nc2ncnc3ccccc23)c1
 : -19, /, -13, /, 3, /, /, /, 3.7, 2
CCOC(=O)C1C(=O)OC(C)(C)C1C(C)C(=O)c1ccccc1 (stereo not given)
 : -5, /, -8, /, 13, /, /, /, -3.6, -11
Cc1cc(Cl)c(S(=O)(=O)N2CCN(c3ccccn3)CC2)cc1OCC(=O)NC1CCCCC1
 : -5, /, 1, -1.6, 26, -11, -14, 12, 2.6, -1
OCCN1CCN(c2cc(-c3ccccc3)c3ccccc3n2)CC1
 : -2, i, 1, 3.7, 35, /, /, /, -17, -1
CC(C)(C)NC(=O)Cn1c(SCC(N)=O)nc2ccccc21
 : -2, /, 1, /, -6, /, /, /, -0.3, 4
Cc1cccc(N(CC(=O)NCCc2ccccc2)C(=O)c2csnn2)c1
 : 1, i, -3, -2.8, 9, 1, 9, -2.3, 4.8, 2

Sorted by the number under rRNA inh HTS (ascending): 3 of the compounds above.
SMILES	rRNA inh HTS
CC(OC(=O)C1CCN(c2ccc(C(F)(F)F)cn2)CC1)C(=O)Nc1cccc([N+](=O)[O-])c1 (stereo not given)	-11
Cc1ccc(OCCOCCn2cnc3ccccc3c2=O)c([N+](=O)[O-])c1	-7
OC(CN1CCCC1)Cn1ccc2ccccc21 (stereo not given)	5

Additional compounds.
SMILES | ALR inh | FGF22 binding | Beta apoptosis | AF4-AF9 inh | T cruzi repl | rRNA inh HTS | rRNA inh HTS OD600 | rRNA inh HTS RFP | RanGTP-Imp inh | Calb FLC
O=S(=O)(Nc1ccccc1Cl)c1ccc(-c2ccccn2)s1 | -15 | i | -7 | -2.3 | 1 | -37* | -12* | -0.7* | 3.9 | 12
O=C(CCN1C(=O)/C(=C/c2ccccc2)SC1=S)Nc1cccnc1 | / | i | 3 | 0.6 | 1 | 3 | 8 | 2.1 | -2.4 | -4
CCOC(=O)c1nnn(-c2nonc2N)c1CS(=O)(=O)c1ccccc1 | -8 | / | 1 | / | 0 | / | / | / | -1.8 | -1
CCc1cccc(NC(=S)Nc2cccc3ccccc23)c1 | -26 | i | 4 | -3.4 | -1 | -25* | -9.5* | -3.2* | 2.0 | -10
Cc1ccc(-n2ncc3c2CCCC3NC(=O)CCc2c(C)noc2C)cc1C (stereo not given) | -15 | i | -2 | -0.9 | 6 | -8 | -9 | 6.5 | ? | -3
O=C(C1=C[C@H](c2ccc(Br)cc2)C[C@H](OCCCCO)O1)N1CCN(Cc2ccc3c(c2)OCO3)CC1 | -9 | i | 1 | -8.0 | 65* | / | / | / | 5.0 | 7
CC(C)(C)C1CCC(C(=O)Nc2ccc(N3CCOCC3)cc2N2CCOCC2)CC1 (stereo not given) | 7 | i | -1 | 11 | / | -20* | -16* | 1.1* | / | /
CCC(C)(C)NC(=O)C(c1ccc(OC)cc1)N(C(=O)CCC(=O)Nc1cc(C)on1)c1cc(OC)ccc1OC (stereo not given) | -7 | i | -3 | 6.5 | -3 | -5 | -1 | -1.2 | -1.8 | -6
Cc1cccc(NC(=O)CN2C(=O)N/C(=C\c3ccc(N4CCOCC4)cc3)C2=O)c1 | 0 | i | -4 | -18 | -3 | 6 | 5 | -6.0 | -0.9 | -58
CC(C)CNC1CCS(=O)(=O)C1 (stereo not given) | -2 | i | -20 | 0.7 | -6 | -5 | 5 | 2.5 | 0.3 | -4
CCCN1C(=O)N(C)C(N(O)C(=O)NC)C1(C)C (stereo not given) | 3 | / | -5 | / | -13 | / | / | / | ? | 1
OCc1nnn(-c2cccc(C(F)(F)F)c2)c1CO | -3 | / | -3 | / | -6 | / | / | / | 7.6 | 2
Cc1ccccc1Cc1c(C)nc2nc(SCC(=O)NCCCN3CCCCC3)nn2c1C | -14 | / | -4 | / | -5 | / | / | / | 2.7 | -13
